# HIV TAR-Tat = HIV-1 TAR-Tat binding disruption. HIV-1 TAR RNA, Tat peptide displacement FRET; stronger effect = higher value. AID 1259389. z-score (concentration not given with the values). 0.6% of 100,000 active;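 also: score is relative to mean and SD of negative controls; some compounds called inactive have numbers as strong as hits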
# CDC25B-CDK2 inh = human CDC25B-CDK2/CyclinA binding inhibition; P30305+P24941; HTRF CDC25B-CDK2/CyclinA binding, anti-His/anti-Flag; stronger effect = higher value; z-score (no concentration beside the values); 0.72% of 94,000 active;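 also: score is relative to mean and SD of negative controls; strong numbers were not always called active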
# Numbers without * were called inactive; . = not tested or not shown.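 The calls were made as follows: active = z-score from 3 up in half or more of its runs; inactive = the rest.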
SMILES,HIV TAR-Tat,CDC25B-CDK2 inh
Cn1c(=O)c2cc(S(=O)(=O)Nc3ccc4c(c3)sc(=O)n4C)ccc2n(C)c1=O,0.41,0.22
CCN1/C(=C\C=C\c2scc[n+]2CC)Sc2c1ccc1ccccc21,-9.2,-2.3
CCC1CCCCN1C1=C(C(=O)N2CCOCC2)S(=O)(=O)c2ccccc21 (stereo not drawn),0.67,.
COC(=O)C1=C(N)OC2=C(C(=O)CC(C)(C)C2)C1c1ccc(C)cc1 (stereo not drawn),.,-0.9
CC(=O)N1c2ccc(S(=O)(=O)NCC3CCC(C(=O)NC4CCC(C)CC4)CC3)cc2CC1C (stereo not drawn),-0.91,.
CC(C(=O)O)N1C(=O)c2cccnc2Sc2ccccc21 (stereo not drawn),1.3,0.17
Cc1sc2c(c1C)CSC(C(=O)Nc1ccccc1Br)=C2,-0.24,.
O=C(CN1CCSc2ccccc21)NCCN1CCCC1,0.89,.
Fc1ccc(CNc2c(-c3cccc(F)c3)nc3ncccn23)cc1,-0.93,.
Cc1noc2ncnc(NCCN(C)Cc3ccccc3)c12,0.18,.
Cc1nnc2c3ccccc3nc(Nc3cccc(Cl)c3)n12,0.77,.
c1ccc2[nH]c(NCCCN3CCOCC3)nc2c1,-0.18,-2.5
CCCCN(CC)Cc1ccc(CNS(=O)(=O)c2cc3c(cc2Cl)NC(=O)CO3)o1,-0.46,.
COc1cccc(N2C(=O)Nc3ccccc3S2(=O)=O)c1,1.2,.
O=C(Nc1ccc(OC(F)(F)F)cc1)Nc1cc(C(F)(F)F)ccn1,.,-0.71
Cc1oc(-c2ccc(Cl)cc2)cc1C(=O)/C(C#N)=C/Nc1ccccc1,.,-2.4
O=C(c1ccc(CS(=O)c2ccccc2)o1)N1CCN(c2ccccn2)CC1 (stereo not drawn),-2,0.29
CSc1nnc2c(n1)OC(c1ccc(C)cc1)Nc1ccccc1-2 (stereo not drawn),0.13,-0.3
CCOC(=O)Cn1c(=O)oc2cc(S(=O)(=O)Nc3ccc(F)cc3)ccc21,-0.63,-0.43
N#C/C(=C\c1ccc(-c2cc(C(F)(F)F)cc(C(F)(F)F)c2)o1)C(=O)O,.,-1.6
Cc1ccc(C)c(N2CCN(C(=O)c3cnc4sc(N5CCC(C)CC5)nn4c3=O)CC2)c1,1.4,.
O=S(=O)(Cc1ccc(F)cc1)c1oc(-c2cccs2)nc1S(=O)(=O)c1ccc(F)cc1,1.7,-1.4
CCn1c2ccccc2c2cc(CN3CCN(S(C)(=O)=O)CC3)ccc21,0,0.07
CN1C(=O)C(C)(C)c2cc(S(=O)(=O)N(Cc3cccs3)C3CCCCC3)ccc21,1.3,.
Cc1cc(C)c2[nH]c3sc(C)nc3c2c1,.,-1.4
Cn1c(SCC(=O)N2CCCC2)nc2c(c1=O)SCC2,0.69,-0.08
Cc1oc(-c2ccccc2)nc1CSc1nnc(C)n2c1cc1occc12,1.1,.
O=C(CN1C(=O)CCC1=O)OC1=CN(Cc2ccccc2)S(=O)(=O)c2ccccc21,-1.5,-0.62
CC(C)CC(C(=O)NCCc1c[nH]c2ccccc12)N1Cc2ccccc2C1=O (stereo not drawn),0.11,.
Cc1cc2c3c([nH]c2cc1S(=O)(=O)Nc1ccc2c(c1)OCO2)CCCC3=O,1.8,.
NC(=O)c1c(NC(=O)CSc2nc(-c3ccco3)cc(C(F)(F)F)n2)sc2c1CCCC2,.,1.6
Cc1ccc(-c2ccc(=O)[nH]n2)cc1S(=O)(=O)Nc1ccc(F)c(Cl)c1,1.4,0.9
CCc1ccc(NS(C)(=O)=O)cc1,1.3,-2.2
CN(C(=O)CSc1cn(CC(=O)N2CCCC2)c2ccccc12)c1ccccc1,0.77,.
CC1=C(C(=O)N2CCCCC2)C(c2ccsc2)C2=C(CCCC2=O)N1 (stereo not drawn),.,-1.6
Cc1cccc(-c2noc(C(C)NS(=O)(=O)c3ccc(Cl)cc3)n2)c1 (stereo not drawn),0.93,0.19
Cc1ncc(-c2ccc(C)c(S(=O)(=O)Nc3c(C)cccc3C)c2)o1,0.74,.
O=S1(=O)N=CNc2ccc(S(=O)(=O)Nc3ccc(Br)cc3)cc21,-0.5,.
Cc1cc(C)cc(N2C(=O)CC(Sc3ncn[nH]3)C2=O)c1 (stereo not drawn),1.5,-0.33
O=C1CC(=O)Nc2cc(S(=O)(=O)Nc3ccc(F)cc3Cl)ccc2N1,2.2,.
c1csc(-c2ccc(-c3ccon3)s2)c1,.,-1.7
Cc1ccc(-n2nnc(-c3nc(-c4ccccc4Cl)no3)c2N)cc1,0.57,.
Cn1c(SCc2nc(-c3ccc(Br)cc3)no2)nnc1C1CCCCC1,1.5,-2
CCOC(=O)N1CN(Cc2ccccc2)Cc2c1oc1ccccc1c2=O,3,-0.36
COC(=O)c1sccc1S(=O)(=O)N1CCOCC1,1.1,.

# 3 consecutive records out of the list so far, quoted:
SMILES,HIV TAR-Tat,CDC25B-CDK2 inh
O=S1(=O)N=CNc2ccc(S(=O)(=O)Nc3ccc(Br)cc3)cc21,-0.5,.
Cc1cc(C)cc(N2C(=O)CC(Sc3ncn[nH]3)C2=O)c1 (stereo not drawn),1.5,-0.33
O=C1CC(=O)Nc2cc(S(=O)(=O)Nc3ccc(F)cc3Cl)ccc2N1,2.2,.

# Continued.
SMILES,HIV TAR-Tat,CDC25B-CDK2 inh
COCCOC(=O)c1c(C)oc2cc(Br)c(OCc3ccc(Cl)cc3)cc12,0.14,0.85
Cc1ccn2c(Nc3ccc4c(c3)OCO4)c(-c3cccnc3)nc2c1,-0.68,1
Cc1nn(CC(N)=S)c(C)c1Br,.,-1.3
Cc1ccc(-n2c(=O)[nH]c3c(C(N)=O)nc(-c4ccccn4)nc32)cc1,1.1,.
Clc1ccc(NC(c2ccccc2)c2nnc(-c3ccccc3)o2)cc1 (stereo not drawn),1.5,0.89
CCc1ccc(C2C(C#N)=C(N)Oc3n[nH]c(-c4ccc5c(c4)OCO5)c32)cc1 (stereo not drawn),2.2,-1.7
S=C(Nc1ccc2nc3c4ccccc4c4ccccc4c3nc2c1)NC1CC1,.,7.1*
CCOc1cc(C2C(C(=O)OC3CCCC3)=C(C)NC3=C2C(=O)CCC3)cc(Br)c1O (stereo not drawn),1.4,-0.85
CCCCn1c(CCC(=O)O)ccc1-c1ccc(C)cc1,1.4,0.35
CC(C)(C)c1ccc(OS(=O)(=O)c2ccc(Cl)cc2Cl)cc1,.,-0.9
O=C(NNc1c(Cl)cncc1Cl)NC(=O)c1ccccc1Cl,.,0.25
Cc1nc2ccc(Cl)cn2c(=O)c1NC(=O)Cc1ccccc1,0.76,.
Cc1cccc(C(=O)OCc2cc(=O)n3c(C)csc3n2)c1,0.75,.
N#C/C(=C\Nc1ccc(Cl)cc1)C(=O)c1ccccc1OC(F)(F)F,.,-2.6
O=C(CSc1nccn(-c2cccc(Cl)c2)c1=O)NC1CCCC1,-1.5,.

# Pulled by compound from above, 4 records:
SMILES,HIV TAR-Tat,CDC25B-CDK2 inh
O=C1CC(=O)Nc2cc(S(=O)(=O)Nc3ccc(F)cc3Cl)ccc2N1,2.2,.
Cc1cc(C)c2[nH]c3sc(C)nc3c2c1,.,-1.4
COCCOC(=O)c1c(C)oc2cc(Br)c(OCc3ccc(Cl)cc3)cc12,0.14,0.85
CCc1ccc(NS(C)(=O)=O)cc1,1.3,-2.2

# Quoted from the listing.
# Result for `c1ccc2[nH]c(NCCCN3CCOCC3)nc2c1` in HIV TAR-Tat: -0.18
# Result for `O=S(=O)(Cc1ccc(F)cc1)c1oc(-c2cccs2)nc1S(=O)(=O)c1ccc(F)cc1` in CDC25B-CDK2 inh: -1.4
# Result for `CC(C)CC(C(=O)NCCc1c[nH]c2ccccc12)N1Cc2ccccc2C1=O` (stereo not drawn) in HIV TAR-Tat: 0.11
# Result for `CSc1nnc2c(n1)OC(c1ccc(C)cc1)Nc1ccccc1-2` (stereo not drawn) in HIV TAR-Tat: 0.13
# Result for `Cc1oc(-c2ccccc2)nc1CSc1nnc(C)n2c1cc1occc12` in HIV TAR-Tat: 1.1

# (further entries)
SMILES,HIV TAR-Tat,CDC25B-CDK2 inh
O=C(c1cnn2c(C(F)F)cc(-c3ccccc3)nc12)N1CCN(c2ncccn2)CC1,1.6,-0.96
C=CCOc1ccc(-c2nc3c(c(=O)[nH]2)Cc2cc(C)ccc2O3)cc1,0.81,-0.31
Cc1ccc(C)c(NC(=O)NC(c2ccccc2)c2nnc(-c3ccccc3)o2)c1 (stereo not drawn),1.4,.
O=C(NCC1CCCO1)c1c[nH]c2ccc(S(=O)(=O)N3CCc4ccccc4C3)cc2c1=O (stereo not drawn),.,-1.9
CN(C)c1ccc(/C=C(\C#N)C(=O)c2ccccc2Cl)cc1,.,0.19
COc1ccc(OC)c(N2CC(C(=O)O)CC2=O)c1 (stereo not drawn),2.5,-0.59
Cc1nn(CCCC(=O)NC2CCCC(C)C2C)c(=O)c2c1sc1ccccc12 (stereo not drawn),3.3,-1.5
COc1cccc(NC(=S)C(C#N)C(=O)N2CCC(C)CC2)c1 (stereo not drawn),.,-0.95
O=C1CSc2ccc(S(=O)(=O)N3CCN(c4ccccc4F)CC3)cc2N1,0.53,.
O=C(Cn1c(-c2cncs2)nc2ccccc21)NCc1ccco1,0.57,-1.6
Cc1ccc2c(c1)-c1c(cnn1CC(=O)NC(C)CCc1ccco1)CO2 (stereo not drawn),.,-2.4
O=C(NCCCc1ccccc1)NC1COc2ccccc2C1 (stereo not drawn),1,.
CCOC(=O)c1c[nH]c2ccc(C)cc2c1=O,2.2,-0.97
Cc1ccc(S(=O)(=O)c2cn(Cc3ccc(F)cc3)c3cc4c(cc3c2=O)OCO4)cc1,-0.47,-0.47
c1ccc(CNc2ncnc3sc4c(c23)CCCCC4)cc1,0.97,.
O=C1CCc2cc(S(=O)(=O)NCCC(=O)NC3CCCCC3)ccc2N1,.,-1.6
CCOC(=O)c1cc(NC(=O)Nc2ccc(OCc3ccccc3)cc2)ccc1N1CCCCC1,.,-1.8
O=C1CSC(c2cccc(NS(=O)(=O)c3ccc(Cl)cc3)c2)N1 (stereo not drawn),-0.4,.
CN(C)c1ccc(NC(=O)CCn2c(=O)oc3ccccc32)cc1,.,0.65
O=C(Oc1ccccc1)c1cccs1,.,0.64
O=C1c2cccnc2C(=O)N1Cc1ccc(S(=O)(=O)Nc2ccc(F)cc2Cl)s1,-0.53,.
Cc1nc2ncnn2c(C)c1CCC(=O)NC1CCCCCC1,.,-1.1
CC(=O)Oc1ccc2nc(-c3cccs3)oc(=O)c2c1,0.66,0.03
CCCCCc1c2c(cc(O)c1C(=O)O)OC(=O)c1c(cc(OC)cc1C(=O)CCCC)O2,-1.4,.
CC(=O)Nc1ccc(S(=O)(=O)Nc2ccc3ccccc3n2)cc1,.,-0.95
C=CCn1c(NCc2cccc(Cl)c2)nc2ccccc21,2,-2.2
c1cc(-c2noc(-c3cccs3)n2)cc(-n2cccc2)c1,.,-1.5
CCSC1=C(C#N)C(c2ccc(Cl)cc2)C(C(=O)OC)C(=O)N1 (stereo not drawn),0.09,-0.81
Cc1nc2ccccc2c2ncccc12,.,-0.33
O=C(CCC(=O)N1Cc2ccccc2Oc2ncccc21)NCCC1=CCCCC1,1.2,.
CSC(=NC#N)N1CCC(C(N)=O)CC1,.,-1.1
Cc1nnc2sc(SCc3c(F)cccc3Cl)nn2c1=O,1.4,.
N#CC1=C(N)OC(c2ccco2)=C(C#N)C1c1ccco1 (stereo not drawn),.,1
CCCCN(CC)C(=O)C1CCN(c2ncnc3onc(C)c23)CC1,0.97,.
O=[N+]([O-])c1ccsc1Sc1cccs1,.,-0.49
CN(C)CCN(Cc1cccs1)S(=O)(=O)c1ccc2c(c1)CCCC(=O)N2,0.5,.
COc1ccc(-c2noc(-c3nnn(-c4cc(C)cc(C)c4)c3N)n2)cc1,1,.
O=C1C=C(Nc2ccccc2)CO1,.,-0.65
COc1ccc(-n2c(=O)c3c4c(sc3n3c(C)nnc23)COC(C(C)C)C4)cc1 (stereo not drawn),.,-0.21
CCOC(=O)c1cc(S(=O)(=O)Nc2ccc3c(c2)OCO3)[nH]n1,1.4,.
O=C1CC(c2nc3ccccc3n2Cc2ccccc2F)CN1Cc1ccccc1 (stereo not drawn),2.1,-2
CCCS(=O)(=O)NCCc1cc2cc(C)c(C)cc2[nH]c1=O,.,-0.83
COc1ccc(-c2cc3ncc(C(=O)c4cc(Cl)ccc4O)cn3n2)cc1,-0.62,-0.21
O=C(Nc1ccc(Br)cc1)C1CC(=O)N(c2ccccc2)C1 (stereo not drawn),0.29,-0.29
CCOc1ccc(C2c3c(n(C)c(=O)n(C)c3=O)N=C3c4ccccc4C(=O)C32)cc1 (stereo not drawn),1.3,-15

# Profiles as entered above:
# `CN(C)CCN(Cc1cccs1)S(=O)(=O)c1ccc2c(c1)CCCC(=O)N2` as listed: HIV TAR-Tat = 0.5; CDC25B-CDK2 inh = .
# `CCCS(=O)(=O)NCCc1cc2cc(C)c(C)cc2[nH]c1=O` as listed: HIV TAR-Tat = .; CDC25B-CDK2 inh = -0.83

# Next part
SMILES,HIV TAR-Tat,CDC25B-CDK2 inh
O=C(Nc1ccc(Br)cn1)c1nc2ccccc2nc1Cl,-3.5,2.4
CC(c1nnc(SCC(=O)c2ccc(Cl)cc2)n1C)N1C(=O)COc2ccccc21 (stereo not drawn),-0.18,.
COCCN(Cc1ccco1)C(=O)c1nn(C)c2c1COc1ccccc1-2,0.46,-0.72
COc1cc2c(cc1OC)C(C(=O)NCC1CCCO1)C(c1cccs1)N(C)C2=O (stereo not drawn),-1.2,-0.74
O=C(CSc1nc2ccccc2nc1N1CCCCC1)N1CCN(c2ccccc2)CC1,-2,-3.7
CN1CC23C=CC(O2)C(C(=O)O)C3C1=O (stereo not drawn),-0.61,-0.15
O=C(O)c1[nH]c2ccccc2c1-n1cccc1,13*,0.75
COc1ccc(OC)c(S(=O)(=O)NCc2cn3ccc(C)cc3n2)c1,-0.72,-0.59
CN1C(=O)C2ON(c3ccccc3)C(c3cccs3)C2C1=O (stereo not drawn),0.01,0.12
Cc1coc(C)c1C(=O)CC1(O)C(=O)N(C(C)C)c2ccccc21 (stereo not drawn),0.17,-1.4
COc1ccc(NC(=O)c2c(N3CCCC3=O)c3cc(OC)ccc3n2C)c(OC)c1,0.04,.
Cn1c(=O)n(C)c2cc(NC(=O)c3cccs3)ccc21,.,-2.1

# Screens as filed in PubChem BioAssay.
